Screens: PubChem, National Center for Advancing Translational Sciences (NCATS)
PMP22 txn: modulates PMP22 transcription in S16 Schwann cells. S16 Pmp22-F2sN Schwann cells (luciferase reporters placed in the Pmp22 gene), FLuc/NLuc coincidence luminescence, 24 h. Potency, µM (doses to about 57.5 µM), for the others: at the top dose activity change, negative = inhibition, hits mostly inhibitors. actives 2% (n = 43,000). AID 1508649; active = clear falling dose curves in both reporters; inconclusive = both reporters move, but less clearly or upward; inactive = either reporter flat; the % is the NLuc reporter signal; further: on the % scale 0 is the no-effect control and ±100 the full control effect; some results filed as inactive show a strong effect at the top dose
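S16 Schwann cells carrying FLuc/NLuc coincidence reporter in the Pmp22 3' UTR treated with compound 24 h at 37C; FLuc then NLuc luminescence read sequentially by dual-luciferase reagents.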
HTT prom inh: HTT promoter inhibition; AID 1508623; Potency, µM (top dose mostly 57.5 µM), for inactives: at the highest dose activity change, negative = inhibition, actives largely listed as inhibitors; HEK293 HTT promoter firefly luciferase reporter (activity 0% = vehicle and -100% = no light), 24 h; actives 0.93% (n = 48,000); active means well fitted inhibition curve with a large enough effect; inconclusive means small, poorly fitted or top-dose-only effect; inactive means no such curve, though single readings can be large or run the other way; further: nearly all actives have a fitted effect of over 50% in size
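Quantitative HTS used concentration series of up to 57.5 uM final on HEK293 luciferase reporter cells, 24 h at 37 degrees C. Readout was Dual-Glo firefly luminescence.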
* marks the source's active call; other numbers are inactive results; ? = inconclusive; . = no result given; [ ] = another dose, or the depositor's remark. Potency means the concentration at half of the fitted maximal effect. These rows are one share of the data (hit frequency here may not be typical).

Under each structure: PMP22 txn | HTT prom inh
O=C(Cn1c(=O)c2cccn2c2ccccc21)NCCc1ccccc1
  -3% | -4%
COc1cc(OC)cc(-c2cc3nc(C)c(CCC(=O)NCCc4cccc(C)c4)c(C)n3n2)c1
  ? | ?
COc1cc(=C2C=c3ccccc3=N2)[nH]c1=Cc1[nH]c(C)cc1C
  . | ?
Brc1ccccc1-c1ccccc1
  . | 10%[116 µM]
Cc1oc(-c2ccccc2F)nc1CN1CCC(C(=O)NCCc2ccc(Cl)cc2)CC1
  ? | -11%
CCOC(=O)c1c(C)oc2nc(C)nc(NCCCN3CCN(c4cc(Cl)ccc4C)CC3)c12
  -24% | 6%
Cc1ccc(-n2nc3c(=O)n(C(C)C(=O)NCc4ccco4)nc(C)c3c2C)cc1 (configuration not stated)
  -11% | -25%
Cc1ccccc1CN1C(=O)c2ccccc2S(=O)(=O)c2ccc(C(=O)OCC3CCCO3)cc21 (configuration not stated)
  9% | -3%
Cc1cccc(N2C(=O)CCSC23C(=O)N(Cc2ccc(F)cc2)c2ccccc23)c1 (configuration not stated)
  ? | ?
CSc1ccc(CNC(=O)Cn2c(-c3cccs3)cc3cc(F)ccc32)cc1
  1% | ?
COC(=O)c1nnn(CC(=O)NC(=O)Nc2cccc(C)c2C)c1C(=O)OC
  -7% | -25%
Cc1ccccc1CNC(=O)c1ccc2nc(SCc3ccc(F)cc3)n(C)c2c1
  -20% | -28%
CC(=O)c1cccc(NC(=O)c2oc3c(c2C)-c2nn(Cc4ccc(Cl)cc4)cc2CC3)c1
  ? | ?
Cc1ccc(OCC(=O)Nc2ccc3nc(SCC(=O)N4CCCC4)sc3c2)cc1C
  -31% | -3%
O=C(Cn1c(=O)n(Cc2ccc(F)cc2)c(=O)c2sc3ccccc3c21)Nc1ccc(F)cc1F
  ? | 0%
CCc1ccccc1NC(=O)c1nnn(CC(=O)Nc2c(C)cc(C)cc2C)c1N
  -40% | -10%
Cc1cccc(-n2c(=O)c3c(c4cc(C)ccc4n3C)n(Cc3ccccc3F)c2=O)c1
  -41% | -7%
CCOc1ccccc1NC(=O)CCc1nc(-c2cccc(C)c2)no1
  -2% | -2%
COc1ccc(-c2nn3c(=O)cc(CN4CCN(C(=O)Nc5cc(C)ccc5C)CC4)nc3s2)cc1
  ? | -18%
CN(C)c1ccc(C(CNC(=O)c2ccccc2)N2CCc3ccccc32)cc1 (configuration not stated)
  ? | 23%
Cc1ccc(NC(=O)C2CCN(c3nc4ccccc4nc3C(F)(F)F)CC2)cc1C
  ? | -10%
COc1ccc(CNC(=O)CCc2c(C)c3cc4c(C)c(C)oc4cc3oc2=O)cc1
  -43% | -3%
Oc1c(I)cc(Cl)c2cccnc12
  . | -12%
COc1ccccc1C(=O)Nc1nnc(SCc2cc(=O)c3cc(Cl)ccc3[nH]2)s1
  -17% | -10%
Cc1cccc(NC(=O)Cn2c(=O)ccc3cc(S(=O)(=O)N4CCCC4)ccc32)c1C
  -14% | -13%
COCCn1c(C)cc(O)c(C(c2ccccc2)N2CCN(c3ccccc3)CC2)c1=O (configuration not stated)
  ? | 0%
Cc1ccc2c(c1)c1c(c(=O)n(-c3ccccc3C)c(=O)n1CC(=O)NCC1CCCO1)n2C (configuration not stated)
  0% | -9%
CC(C)c1ccc(NS(=O)(=O)c2ccc3[nH]cc(C(=O)NCCc4ccccc4)c(=O)c3c2)cc1
  -30% | -18%
COCCNC(=O)c1ccc(NC(=O)N2CCCCc3ccccc32)cc1
  -11% | -15%
CCCN(CCC)C(=O)c1c[nH]c2ccc(S(=O)(=O)N(C)c3ccc(OCC)cc3)cc2c1=O
  -7% | -23%

3 compounds from above, sorted by length of the SMILES, low to high:
Under each structure: PMP22 txn | HTT prom inh
Cc1ccc(-n2nc3c(=O)n(C(C)C(=O)NCc4ccco4)nc(C)c3c2C)cc1 (configuration not stated)
  -11% | -25%
Cc1cccc(NC(=O)Cn2c(=O)ccc3cc(S(=O)(=O)N4CCCC4)ccc32)c1C
  -14% | -13%
COc1cc(OC)cc(-c2cc3nc(C)c(CCC(=O)NCCc4cccc(C)c4)c(C)n3n2)c1
  ? | ?

Random excerpt: 2 entries already listed, in no set order.
Under each structure: PMP22 txn | HTT prom inh
COc1cc(OC)cc(-c2cc3nc(C)c(CCC(=O)NCCc4cccc(C)c4)c(C)n3n2)c1
  ? | ?
COC(=O)c1nnn(CC(=O)NC(=O)Nc2cccc(C)c2C)c1C(=O)OC
  -7% | -25%

New compounds follow.
Under each structure: PMP22 txn | HTT prom inh
Cc1sc2ncn(CC(=O)N3CCN(c4ccccc4)CC3)c(=O)c2c1S(=O)(=O)N1CCC(C)CC1
  ? | -32%
COc1cc(/C=C/c2nc(C#N)c(N3CCC(C)CC3)o2)cc(OC)c1OC
  -14% | -26%
COc1cc(-c2nnc(SCC(=O)Oc3ccc(C)cc3C)o2)cc(OC)c1OC
  5% | 4%
O=S(=O)(c1ccccc1)c1nnn2c1nc(NCc1ccccc1)c1sccc12
  5% | 2%
O=C(C1CCCN(S(=O)(=O)c2ccc(Br)s2)C1)N1CCN(c2ccccc2F)CC1 (configuration not stated)
  -3% | -24%
Cn1c(=O)n(C)c2cc(NS(=O)(=O)c3ccccc3)c(NCc3ccccc3)cc21
  ? | 90%[activator]
CCOc1ccc(-c2nnc(SCC(=O)c3ccc(Br)cc3)n2-c2ccccc2)cc1
  ? | -24%
Cc1ccc(S(=O)(=O)Nc2ccc3c(c2)CCCN3C(=O)c2cccs2)cc1C
  ? | ?
CCOC(=O)N1CCc2c(sc3c2C(=O)NC(c2ccc(N(C)C)cc2)N3)C1 (configuration not stated)
  ? | ?
CCOc1ccc(CCNC(=O)c2c(C)oc3ncn(CC(C)C)c(=O)c23)cc1
  20µM* | 1%
CCCN(c1ccccc1CC)S(=O)(=O)c1ccc2c(c1)CC(C)N2C(=O)C1CC1 (configuration not stated)
  ? | 22µM*
COC(=O)c1ccc2c(c1)N(Cc1ccc(Cl)cc1)C(=O)c1ccccc1S2
  17% | ?
COc1ccc2c(c1)c1c(c(=O)n(CCc3ccccc3)c(=O)n1Cc1cccc(F)c1)n2C
  ? | -10%
Cc1ccc(-n2nc(C(=O)N3CCN(c4cc(Cl)ccc4C)CC3)c(=O)n(C)c2=O)cc1
  ? | ?
O=C(NCc1cccs1)c1ccc2c(c1)sc1nc(-c3ccc(F)cc3)cn12
  -13% | -9%
O=C(Nc1cccc(F)c1)c1ccc2oc(=O)n(Cc3ccccc3)c2c1
  -35% | ?
COc1ccc(C(=O)NCCc2nc3ccccc3[nH]2)cc1
  2% | -4%
CCCSCCCNC(=O)CN1C(=O)COc2ccc(S(=O)(=O)N3CCC(C)CC3)cc21
  -14% | -19%
COc1ccc2nc(NC(=O)c3nc(S(=O)(=O)Cc4ccccc4)ncc3Cl)sc2c1
  3µM* | -30%
Cc1nc(N2CCCC2)c2c(C(=O)N3CCN(c4cccc(C)c4C)CC3)c(C)oc2n1
  ? | ?
COC(=O)c1ccc(NC(=O)CSc2cn(CC(=O)N3CCCCCC3)c3ccccc23)cc1
  ? | -28%
O=C(NCc1ccccc1Cl)c1ccc2c(O)c(S(=O)(=O)c3ccccc3)c(=O)[nH]c2c1
  -5% | -3%
COc1cn(CC(=O)Nc2cc(C)cc(C)c2)c(CN2CCCCC2)cc1=O
  ? | -8%
O=C1c2ccccc2-c2onc3c(NCCO)cc(NC4CCCCC4)c1c23
  ? | ?
O=C(CCCn1ncn2c(cc3occc32)c1=O)NCc1ccccc1F
  -10% | -9%
COc1ccc(-n2nc(C(=O)Nc3ccccn3)c3c4ccccc4n(C)c3c2=O)cc1
  7% | -12%
Cc1ccc(NC(=O)c2cc3cc(C)ccc3n2C)cc1
  ? | -1%
CCCCN(CCCC)CCNC(=O)Cn1nc(CC)n2c(cc3sc(C)cc32)c1=O
  ? | ?
CC(C)(C)C1CCc2c(sc(NC(=O)c3cccc(Cl)c3)c2C(=O)NCc2ccco2)C1 (configuration not stated)
  3% | ?
Cn1cnc2c(=O)oc3ccc(S(=O)(=O)N4CCN(c5ccccc5)CC4)cc3c21
  -16% | -1%

Sorted by the number under HTT prom inh (descending): 3 of the compounds above
Compound	HTT prom inh
Cc1ccc(NC(=O)C2CCN(c3nc4ccccc4nc3C(F)(F)F)CC2)cc1C	-10%
O=C(C1CCCN(S(=O)(=O)c2ccc(Br)s2)C1)N1CCN(c2ccccc2F)CC1 (configuration not stated)	-24%
COc1cc(/C=C/c2nc(C#N)c(N3CCC(C)CC3)o2)cc(OC)c1OC	-26%

Single entries from above:
In HTT prom inh, CCOc1ccc(CCNC(=O)c2c(C)oc3ncn(CC(C)C)c(=O)c23)cc1 has the entry 1%
In HTT prom inh, CCOc1ccc(-c2nnc(SCC(=O)c3ccc(Br)cc3)n2-c2ccccc2)cc1 has the entry -24%
In HTT prom inh, Cc1sc2ncn(CC(=O)N3CCN(c4ccccc4)CC3)c(=O)c2c1S(=O)(=O)N1CCC(C)CC1 has the entry -32%
In PMP22 txn, COc1ccc(-n2nc(C(=O)Nc3ccccn3)c3c4ccccc4n(C)c3c2=O)cc1 has the entry 7%
